# RGS16-Gao: modulators of RGS16 binding to Galphao, primary screen, biochemical, human proteins, multiplexed bead flow cytometry | Regulator of G-protein signaling 16 (Homo sapiens) + Guanine nucleotide-binding protein … | bead-based flow cytometry RGS16-Galphao binding, fluorescence; actives lie on both sides | binding response (% of control), % at 10 µM | actives 0.38% (n = 220,000);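 active = below 25% or above 175%, edge rows of some plates excepted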;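 note: Galphao activated by GDP with aluminum fluoride before binding; 100% = wells without compound and 0% = beads without RGS; some results beyond the cut were filed as inactive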
# Target sequence (O15492 whole entry, looked up): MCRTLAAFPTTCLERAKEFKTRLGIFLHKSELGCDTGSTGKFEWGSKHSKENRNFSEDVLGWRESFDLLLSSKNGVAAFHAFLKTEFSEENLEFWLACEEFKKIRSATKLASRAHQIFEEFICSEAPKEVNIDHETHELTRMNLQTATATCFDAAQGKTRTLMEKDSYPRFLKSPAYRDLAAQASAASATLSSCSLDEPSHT
# Target sequence (P09471 whole entry, looked up): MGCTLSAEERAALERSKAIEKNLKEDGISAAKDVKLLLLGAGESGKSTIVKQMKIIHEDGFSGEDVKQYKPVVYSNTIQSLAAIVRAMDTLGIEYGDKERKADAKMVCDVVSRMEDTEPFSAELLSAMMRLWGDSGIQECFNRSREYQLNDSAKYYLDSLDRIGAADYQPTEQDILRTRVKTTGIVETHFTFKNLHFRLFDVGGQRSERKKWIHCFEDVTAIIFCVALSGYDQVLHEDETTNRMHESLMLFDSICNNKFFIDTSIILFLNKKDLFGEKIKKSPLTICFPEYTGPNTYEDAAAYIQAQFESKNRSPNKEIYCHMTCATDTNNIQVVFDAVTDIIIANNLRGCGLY
# PKD1 kinase inh: inhibitors of human PKD1 kinase, biochemical, fluorescence polarization | Serine/threonine-protein kinase D1 (Homo sapiens), Q15139 | PKD1 kinase fluorescence polarization assay | inhibition, %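 (about 10 µM by stock and volumes)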 | actives 0.056% (n = 200,000);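 active = inhibition of 50% or more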;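 note: controls were vehicle for no effect and a reference inhibitor for full effect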
# GALR2 ag: GALR2 receptor agonists, primary screen, cell-based. Galanin receptor type 2 (Homo sapiens), O43603. GALR2-expressing cells, agonist activation read-out. activation, %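 (tested at 5 µM)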. actives 0.48% (n = 140,000);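 active = above mean plus 3 SD of all compounds, about 5% in these data, not always enough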;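 note: 0% = vehicle buffer wells and 100% = reference agonist at full effect; tested in CHO reporter cells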
# Target sequence (O43603 whole entry, looked up): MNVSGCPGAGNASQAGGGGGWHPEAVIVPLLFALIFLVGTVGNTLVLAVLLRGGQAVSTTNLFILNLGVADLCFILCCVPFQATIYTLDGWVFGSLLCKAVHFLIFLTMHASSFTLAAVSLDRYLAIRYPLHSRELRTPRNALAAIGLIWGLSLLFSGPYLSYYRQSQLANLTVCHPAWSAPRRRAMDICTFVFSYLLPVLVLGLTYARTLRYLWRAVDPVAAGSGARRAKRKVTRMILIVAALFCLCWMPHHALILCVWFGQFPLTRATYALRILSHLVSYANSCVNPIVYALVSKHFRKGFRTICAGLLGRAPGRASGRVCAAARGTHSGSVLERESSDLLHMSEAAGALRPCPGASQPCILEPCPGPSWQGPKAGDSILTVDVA
# Insulin prom inh: inhibitors of insulin promoter-driven GFP, primary screen, imaging, TRM-6 cells (human fetal islet line), eGFP reporter, cell count. reporter expression induced with tamoxifen. inhibition, % at 2 µM. actives 0.9% (n = 130,000);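 active = inhibition above the mean plus 3 SD, with well images judged a real hit on visual review, cut at about 60% in these data, passing the limit was not always enough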
# HSV augment: enhancers of HSV replication in host cells, fold increase, host cell viability; HSV replication augmentation in cells; maximum fold increase; actives 0.005% (n = 220,000); AID 1956, 2009;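 active = peak rise of 1.5-fold or more in the series; tested in PC3 cells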;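 note: first round at 10 µM; read as green reporter fluorescence; hits show the peak of a series up to 25 µM; 1 = signal of infected wells without compound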
# Insulin prom inh cell count: second read-out of Insulin prom inh, no call of its own (marks repeat the call); normalized cell count, %; measured here: cell count, toxicity; reference of the scale not given here;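 cells exposed to compound for 48 h; stained nuclei by imaging scaled within each plate; lower means fewer cells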
# HSV augment primary fold: second read-out of HSV augment, no call of its own (marks repeat the call); fold increase; compound at 10 µM; measured here: primary screen fold increase 10 uM; tested in PC3 cells;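 GFP signal in the first replicate; 1 = infected wells without compound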
# The depositor's hits bear a star; i = inactive; / = not tested or not shown.
# Fields – RGS16-Gao	PKD1 kinase inh	GALR2 ag	Insulin prom inh	Insulin prom inh cell count	HSV augment	HSV augment primary fold
> NS(=O)(=O)c1ccc(NC(=O)N[C@@H](Cc2ccccc2)C(=O)O)cc1
 : 101	-7	-1.4	11	174	i	0.8
> O=C(COC(=O)CCN=C1NS(=O)(=O)c2ccccc21)NC1CCCCCCC1
 : 99	/	/	/	/	i	0.91
> OCC1CCCN(C(=S)Nc2ccc(OC(F)F)cc2)C1 (stereo not given)
 : 102	2	-0.1	/	/	i	0.92
> Cc1nc2ccc(Cl)cc2c(-c2ccccc2)c1CC(=O)O
 : 98	-8	-1.4	-22	119	i	0.87
> CC(=O)NCCNC(=O)C1CCCCN1S(=O)(=O)c1ccccc1 (stereo not given)
 : 102	-5	/	/	/	i	0.88
> COC(=O)Nc1nc(-c2ccccc2)c(C(=O)c2ccc(Cl)cc2)s1
 : 89	6	-0.1	-3	88	i	0.8
> COc1ccc(NC(=O)c2ccco2)cc1NC(=O)c1ccc(C)cc1
 : 94	-1	-1.0	-64	112	i	0.72
> CCN(CC)c1ccc(-c2n[nH]c(=S)n2-c2ccccc2)cc1
 : 106	-3	/	/	/	i	0.74
> FC(F)Sc1ccc(NC(=S)NCC2CCCCC2)cc1
 : 106	5	-4.1	-50	64	i	0.96
> Cc1ccc(CN(C(=O)CNC(=O)c2cccs2)C(C(=O)NCC2CCCO2)c2ccccc2)cc1 (stereo not given)
 : 109	-6	-3.4	-25	91	i	1.1
> CCOC(=O)c1cc(NC(=O)c2cccs2)ccc1N1CCOCC1
 : 98	3	/	45	109	i	0.95
> COC(=O)CSC(C)C(=O)Nc1nnc(C(C)C)s1 (stereo not given)
 : 100	-6	/	35	97	i	1.1
> Cc1ccc(C(=O)NC2CCCCCC2)cc1N1CCCC1=O
 : 101	29	-3.9	-20	62	i	0.99
> CCOC(=O)C1=C(CNCc2ccccc2Cl)NC(=O)NC1c1ccc2c(c1)OCO2 (stereo not given)
 : 111	7	0.8	-76	101	i	1
> Cc1ccc(C(=O)c2cncc(Br)c2)cc1
 : 104	-6	-2.0	-38	28	i	0.92

# Sorted by the number under HSV augment primary fold (lowest first): 3 from the list above.
smiles	HSV augment primary fold
Cc1nc2ccc(Cl)cc2c(-c2ccccc2)c1CC(=O)O	0.87
Cc1ccc(C(=O)c2cncc(Br)c2)cc1	0.92
COC(=O)CSC(C)C(=O)Nc1nnc(C(C)C)s1 (stereo not given)	1.1

# Whole records from above:
# Entry for `COC(=O)Nc1nc(-c2ccccc2)c(C(=O)c2ccc(Cl)cc2)s1` → RGS16-Gao = 89; PKD1 kinase inh = 6; GALR2 ag = -0.1; Insulin prom inh = -3; Insulin prom inh cell count = 88; HSV augment = i; HSV augment primary fold = 0.8
# Entry for `CCOC(=O)C1=C(CNCc2ccccc2Cl)NC(=O)NC1c1ccc2c(c1)OCO2` (stereo not given) → RGS16-Gao = 111; PKD1 kinase inh = 7; GALR2 ag = 0.8; Insulin prom inh = -76; Insulin prom inh cell count = 101; HSV augment = i; HSV augment primary fold = 1
# Entry for `COC(=O)CSC(C)C(=O)Nc1nnc(C(C)C)s1` (stereo not given) → RGS16-Gao = 100; PKD1 kinase inh = -6; GALR2 ag = /; Insulin prom inh = 35; Insulin prom inh cell count = 97; HSV augment = i; HSV augment primary fold = 1.1

# Further compounds follow.
# Fields – RGS16-Gao	PKD1 kinase inh	GALR2 ag	Insulin prom inh	Insulin prom inh cell count	HSV augment	HSV augment primary fold
> CCOc1ccc(NC(=O)CSC(N)=O)cc1
 : 243	-12	-0.3	/	/	i	0.95
> COCCNC(=O)c1cc2c3ccccc3n(C)c2s1
 : 101	-10	-1.6	7	138	i	0.91
> CCn1c(=O)cc(SCC(=O)N2CCN(c3ccccc3OC)CC2)c2ccccc21
 : 107	2	-2.1	/	/	i	0.94
> CCOc1ccc(/C=C/C2=Cc3c(sc(NC(=O)CSc4n[nH]c(N)n4)c3C#N)C(C)(C)C2)cc1
 : 93	-2	-1.6	-51	114	i	1.2
> CC(C)C(NC=C1C(=O)OC(C)(C)OC1=O)C(=O)O (stereo not given)
 : 93	-4	-1.0	4	153	i	1.1
> O=C(N/N=C/c1ccccn1)c1ccc(Br)cc1
 : 97	6	0.1	/	/	i	0.91
> CCOC(=O)c1c(C)[nH]c(C(=O)COc2ccc3c(c2)OCO3)c1C
 : 95	-7	-0.4	12	73	i	0.96
> Cc1cc(C(=O)N2CCN(c3ccccc3)CC2)c(C)o1
 : 85	-1	-1.2	14	136	i	1
> CCCOc1ccc(N2C(=O)CC(NCc3ccc(S(N)(=O)=O)cc3)C2=O)cc1 (stereo not given)
 : 104	-5	/	/	/	i	0.96
> Cn1c(-c2cc3ccc(OC(=O)C(C)(C)C)cc3oc2=O)nc2ccccc21
 : 96	-1	46*	-56	226	i	0.88
> CCCNC(C)C(=O)Nc1ccccc1C (stereo not given)
 : 95	/	/	/	/	i	0.64
> Cc1ccc(CNc2ccc(N3CCOCC3)cc2)s1
 : 186	0	-1.9	/	/	i	0.87
> COc1cc(CNc2cccc(F)c2)cc(Br)c1O
 : 100	-6	-0.7	-64	151	i	0.93
> CNc1nc(C)cc(C)c1S(=O)(=O)c1ccc(Cl)cc1
 : 66	9	-0.1	22	97	i	1.1
> CC(C)[C@H](NC(=O)c1ccco1)C(=O)OCC(=O)Nc1ccccc1OC(F)F
 : 107	-12	/	-80	141	i	0.96

# Random excerpt: 4 records from the list
# Fields – RGS16-Gao	PKD1 kinase inh	GALR2 ag	Insulin prom inh	Insulin prom inh cell count	HSV augment	HSV augment primary fold
> CC(C)C(NC=C1C(=O)OC(C)(C)OC1=O)C(=O)O (stereo not given)
 : 93	-4	-1.0	4	153	i	1.1
> Cc1ccc(CN(C(=O)CNC(=O)c2cccs2)C(C(=O)NCC2CCCO2)c2ccccc2)cc1 (stereo not given)
 : 109	-6	-3.4	-25	91	i	1.1
> COC(=O)CSC(C)C(=O)Nc1nnc(C(C)C)s1 (stereo not given)
 : 100	-6	/	35	97	i	1.1
> COc1cc(CNc2cccc(F)c2)cc(Br)c1O
 : 100	-6	-0.7	-64	151	i	0.93

# Other entries:
# Fields – RGS16-Gao	PKD1 kinase inh	GALR2 ag	Insulin prom inh	Insulin prom inh cell count	HSV augment	HSV augment primary fold
> CCn1cnc2c1c(=O)n(CC(=O)NCc1ccccc1)c(=O)n2Cc1ccccc1
 : 103	4	/	/	/	i	0.78
> CC(/C=N/NC(=O)c1cc(-c2cccn2C)n[nH]1)=C\c1ccccc1
 : 96	/	/	/	/	i	0.93
> COc1ccc(/C=C2/C(=O)N(c3nc4ccccc4s3)N=C2CSc2ccc(Cl)cc2)cc1
 : 97	-1	0.0	7	96	i	1.1
> O=C(CN1CCN(C(=O)N2CCOCC2)CC1)Nc1ccc(Br)cc1
 : 90	1	-1.8	-186	118	i	0.88
> COc1ccc(CN(Cc2nc3ccccc3c(=O)[nH]2)C(=O)NC2CCCCC2)cc1
 : 93	-1	-1.5	-59	100	i	0.89
> CC(c1ccccc1)N1CCC(CNC(=S)Nc2cccc(Cl)c2)C1 (stereo not given)
 : 105	3	/	/	/	i	0.68
> O=C(Nc1ccc(Oc2cccc(C(F)(F)F)c2)nc1)c1ccco1
 : 95	/	/	/	/	i	0.98
> Cc1nn2c3ccccc3nc2c2ccccc12
 : 101	-8	0.3	62	192	i	0.85
> CC(=O)N1N=C(c2ccc(NS(C)(=O)=O)cc2)CC1c1ccc2nccnc2c1 (stereo not given)
 : 103	-3	/	38	103	i	0.92
> CC(=O)NCCc1nc2ccccc2n1CCc1ccccc1
 : 54	1	/	/	/	i	1
> Cc1c(C#N)c(N=CN(C)C)c(C(=O)c2ccc(Br)cc2)n1-c1ccc(Cl)cc1
 : 102	2	-0.6	-19	132	i	1.1
> O=C1c2ccccc2C(=O)N1CCCc1nc(-c2cccnc2)no1
 : 65	0	-3.4	-75	76	i	0.96
> Cc1ccsc1/C=N/n1c(-c2ccccc2)n[nH]c1=S
 : 69	8	-0.5	50	123	i	0.89
> NNC(=O)CN1C(c2ccc(Br)cc2)=Nc2ccc(Br)cc2C1c1ccccc1 (stereo not given)
 : 73	5	-2.0	29	112	i	0.98
> Nc1nonc1C(=O)NCCNCc1ccccc1OCc1ccccc1F
 : 103	-6	-2.2	/	/	i	0.83

# Further entries:
# Fields – RGS16-Gao	PKD1 kinase inh	GALR2 ag	Insulin prom inh	Insulin prom inh cell count	HSV augment	HSV augment primary fold
> CS(=O)(=O)N(Cc1ccccc1)c1ccccc1C(=O)N1CCN(c2ccccc2)CC1
 : 113	-5	-2.9	21	68	i	1
> CCCCc1ccc(Nc2ncccc2C#N)cc1
 : 101	-7	-1.1	/	/	i	1.1
> O=C(CSc1nnc(Cc2ccccc2)n1-c1cccc(Cl)c1)N1CCOCC1
 : 103	-7	-1.3	-32	147	i	1
> CC1=CCC2C(=O)N(c3nc4ccccc4n3C)C(=O)C2C1 (stereo not given)
 : 103	-8	-1.5	-50	112	i	0.68
> CCCCCOC(=O)c1[nH]c2c(c1C)C(=O)CC(c1ccco1)C2 (stereo not given)
 : 42	7	2.2	-37	7	i	0.63
> O=C1CN(C(=O)c2cccs2)c2ccccc2N1
 : 103	-11	-1.9	/	/	i	0.96
> Cc1noc(C)c1COC(=O)[C@@H](NC(=O)c1ccccc1)C(C)C
 : 104	-3	/	-42	146	i	0.96
> COc1ccc(NC(=O)CSc2nc3ccccc3c(=O)n2Cc2cccs2)c(OC)c1
 : 94	3	-1.1	-50	60	i	0.95
> Cn1cc(CNCc2cn[nH]c2-c2ccc(F)cc2)c(-c2ccc3c(c2)OCCO3)n1
 : 102	5	/	0	94	i	0.94
> O=C(CCn1ccnc1)Nc1nc2ccccc2[nH]1
 : 108	0	/	/	/	i	0.95
> O=C(CNC(=O)c1ccco1)OCC(=O)c1ccccc1
 : 128	-11	-1.6	/	/	/	/
> CCOCCCNC(=O)C1CCC(CNS(=O)(=O)c2ccc(OC)cc2)CC1 (stereo not given)
 : 98	4	/	/	/	i	1.1
> Cc1nn(CC(O)Cn2c3c(c4ccccc42)CCN(C)C3=O)c(C)c1Br (stereo not given)
 : 95	3	-1.3	-57	127	i	0.94
> CCOc1c(Cl)cc(CNc2ccc(N3CCCC3)cc2)cc1OC
 : 96	-9	/	/	/	i	0.72
> Cc1ccc(NC(=S)N/N=C/c2ccc(Cl)c([N+](=O)[O-])c2)cc1
 : 96	-1	-3.2	-43	103	i	0.95

# More records.
# Fields – RGS16-Gao	PKD1 kinase inh	GALR2 ag	Insulin prom inh	Insulin prom inh cell count	HSV augment	HSV augment primary fold
> C[C@@]12CC(=O)NC1N(C(=O)c1cccc(C(F)(F)F)c1)C(c1ccccc1OC(=O)c1cccc(C(F)(F)F)c1)C2 (stereo not given in full)
 : 101	1	0.2	14	164	i	0.88
> COc1cccc(C(=O)C2CCCN(Cc3cn[nH]c3C3CCCCC3)C2)c1 (stereo not given)
 : 95	-3	/	/	/	i	0.97
> O=C(Cc1ccc([N+](=O)[O-])cc1)Nc1nccs1
 : 105	/	/	/	/	i	1.1
> CC1(C)N=C(N)N=C(N)N1c1ccccc1
 : 73	-3	-2.3	60	83	i	0.93
> CCC(c1nnnn1C1CCCC1)N1CCN(c2ccccc2)CC1 (stereo not given)
 : 107	-10	-4.6	-10	149	i	1.1
> CCOC(=O)c1c(NC(=O)CSc2c[nH]c3ccccc23)sc2c1CCC2
 : /	-11	1.7	19	136	i	0.73
> O=C(Nc1ccc(Cl)cc1)[C@@H]1[C@@H]2C(=O)N(c3ccc(Cl)cc3)C(=O)[C@@H]2[C@H]2C=CC=NN21
 : 95	-4	-0.7	3	128	i	1.1
> CC1=Nc2nc(N3CCCCC3)c(C#N)c3c4c(nc(c23)N1)N(c1ccc(C(C)C)cc1)C(=O)C4
 : 103	-11	0.6	4	95	i	0.85
> CN1CCN(S(=O)(=O)c2ccc(NCc3ccc4c(c3)OCO4)nc2)CC1
 : 109	/	/	/	/	i	1
> COc1cccc(-c2cc(C(F)(F)F)n3nc(C(=O)N4CCCCC4c4cccnc4)cc3n2)c1 (stereo not given)
 : 101	7	/	29	102	i	0.72
> CC(C)C(=O)NC(=S)Nc1nnn(C)n1
 : 102	-7	0.9	55	107	i	1
> C(=N\Nc1nc2ccccc2[nH]1)/c1ccccn1
 : 103	1	/	19	110	i	0.75
> CC(C)c1cc(-c2cc(C(=O)NCc3ccccc3)on2)nc(NC2CCCC2)n1
 : 99	/	/	/	/	i	0.72
> Brc1ccc(-c2cn3ccccc3n2)cc1
 : 59	/	/	/	/	i	0.94

# Compound activity deposited in PubChem by several laboratories.
